FGF22 binding = shifts melting point of recombinant human FGF22; Q9HCT0; recombinant FGF22 thermal shift, SYPRO orange fluorescence; percent of sucrose octasulfate shift, DMSO zero; calls only at 9.99 µM; actives 1.5% (n = 340,000); AID 651658;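 active = melting point raised past a set limit in the mean and every replicate; inconclusive = no clear call; three in four hits are not shown here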
Target sequence (Q9HCT0 whole entry, looked up): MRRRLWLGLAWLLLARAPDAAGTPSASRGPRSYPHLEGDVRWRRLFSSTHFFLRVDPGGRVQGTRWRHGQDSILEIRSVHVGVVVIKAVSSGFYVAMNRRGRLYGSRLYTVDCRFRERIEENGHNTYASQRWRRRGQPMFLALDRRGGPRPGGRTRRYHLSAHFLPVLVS
Ecoli growth = inhibitors of Escherichia coli growth; OD600, 23 h; stronger effect = lower value; OD600 absorbance (no concentration beside the values); actives 0.21% (n = 330,000);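 active = OD600 absorbance below the run mean of sample wells minus 3.6 SD, in any replicate, cut at about 0.56 in these data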;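 also: stock transfer was 300 nL into about 60 µL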
ALR inh = blocks human ALR sulfhydryl oxidase activity. P55789. purified ALR, DTT oxidation, H2O2 HRP-luminol luminescence. inhibition, % (test concentration not listed). actives 3.8% (n = 290,000). AID 485317;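 active = mean and each replicate at 75% or more; inconclusive = only one of the two met; inactive = neither met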;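 also: stock transfer was 7.5 nL into about 7.5 µL; 0% = neutral wells and 100% = wells with inactivated enzyme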
Target sequence (P55789 whole entry, looked up): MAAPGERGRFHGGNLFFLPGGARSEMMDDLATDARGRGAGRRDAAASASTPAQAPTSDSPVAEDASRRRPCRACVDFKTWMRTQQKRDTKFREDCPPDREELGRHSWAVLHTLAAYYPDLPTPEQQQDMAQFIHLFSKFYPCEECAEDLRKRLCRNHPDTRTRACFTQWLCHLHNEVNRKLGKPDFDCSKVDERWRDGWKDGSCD
HNF4A DNA FP = change in binding of human HNF4 alpha to DNA | P41235 | HNF4a-FITC DNA binding, fluorescence polarization, 1 h | activity change, % at 10 µM | actives 0.3% (n = 360,000) | AID 1224865; in the data active = activity change above about 30%, passing the limit was not always enough;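 also: controls were the assay level and a saturating level of protein; the project sought stronger binding though the title names inhibitors; some compounds called inactive have numbers as strong as hits; positive values seem to mean higher polarization but the record does not say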
Ecoli rRNA inh = inhibitors of bacterial rRNA selective over humanized ribosomes. actives 1.6% (n = 350,000). GFP signal change (wild-type ribosome), % (concentration not given with the values). E. coli WT GFP vs humanized-ribosome RFP mutants, fluorescence, 24 h; stronger effect = lower value; DMSO median 0, no signal -100. AID 720706;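 active = significant combined selectivity score with lowered wild-type GFP, culture density cut under 30%, mutant RFP and density less affected; inactive = any of these conditions unmet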; also: one replicate is shown; some compounds called inactive have numbers as strong as hits
Vif TR-FRET = HIV-1 Vif–A3G interaction blockers – biochemical, TR-FRET, GST-Vif 1-94, biotin-A3G peptide, dose response retest, primary screen (AID 1117319); TR-FRET GST-Vif / biotin-A3G peptide binding; higher % means a stronger effect; test concentration not given here; strong numbers were not always called active; one-dose inhibition, %; IC50 in µM for titrated hits; actives 0.57% (n = 260,000);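 active = above the screen mean plus three standard deviations and confirmed in dose response; inconclusive = results disagree or hit not tested in dose response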;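 also: Vif residues 1-94 fused to GST binding biotinylated APOBEC3G peptide 110-148; 0% = full assay without inhibitor and 100% = GST in place of GST-Vif; retest series ran down from 100 µM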
MLL AF4-AF9 inh = inhibitors of human MLL-AF4/AF9 interaction | AlphaScreen, biotin-AF4 peptide binding to FLAG-AF9 | AID 651704 | actives 0.47% (n = 350,000) | inhibition, % at 10 µM | P42568;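 active = every replicate reaching a set inhibition limit, whatever the replicate mean, cut at about 25% in these data; inconclusive = mean inhibition reaches that limit but some replicates miss it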;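 also: 0% = plate neutral control median and 100% = total signal loss; the record names both 10 and 1 µM as test concentration; the first replicate is given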
Target sequence (P42568 whole entry, looked up): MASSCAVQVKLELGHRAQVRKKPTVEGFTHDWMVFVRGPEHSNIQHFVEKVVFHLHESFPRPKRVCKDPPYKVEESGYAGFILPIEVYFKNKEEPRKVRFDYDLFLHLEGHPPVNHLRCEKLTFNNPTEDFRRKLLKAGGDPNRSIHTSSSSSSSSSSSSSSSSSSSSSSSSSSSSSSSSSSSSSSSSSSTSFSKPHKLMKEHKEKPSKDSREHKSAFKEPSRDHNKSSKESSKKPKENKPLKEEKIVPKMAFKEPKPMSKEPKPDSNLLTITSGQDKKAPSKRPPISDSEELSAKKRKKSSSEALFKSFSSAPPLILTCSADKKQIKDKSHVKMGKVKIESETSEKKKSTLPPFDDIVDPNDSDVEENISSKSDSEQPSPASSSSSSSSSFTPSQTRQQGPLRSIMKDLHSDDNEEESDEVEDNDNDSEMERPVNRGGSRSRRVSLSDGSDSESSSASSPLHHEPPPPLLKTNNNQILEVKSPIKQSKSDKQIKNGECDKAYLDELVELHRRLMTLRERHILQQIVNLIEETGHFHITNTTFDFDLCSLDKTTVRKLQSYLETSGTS
Ecoli rRNA inh OD600 = recorded beside Ecoli rRNA inh, whose call it bears; OD600 change, %; measured here: OD600 growth;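 optical density of the mix in the first replicate; 0 = DMSO median and -100 = no signal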
Ecoli rRNA inh RFP = second read-out of Ecoli rRNA inh, no call of its own (marks repeat the call); RFP signal change, %; measured here: RFP humanized mutant strains;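 first replicate; 0 = DMSO median and -100 = no signal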
The depositor's hits bear a star; i = inactive; ? = inconclusive; . = not tested or not shown; + = active, no number. Some of the compounds tested, so the mix of outcomes need not match the whole.

A first look:
cpd	HNF4A DNA FP	FGF22 binding	Ecoli rRNA inh RFP	ALR inh	Vif TR-FRET	Ecoli rRNA inh	Ecoli rRNA inh OD600	Ecoli growth	MLL AF4-AF9 inh	molecule
1	3.4	i	6.5	-7	.	13	21	0.66	5.8	CCOC(=O)C1=C(C)N(CCCC(=O)O)C(=O)NC1c1ccccc1OS(=O)(=O)c1ccccc1[N+](=O)[O-] (stereo not drawn)
2	1.9	.	.	-5	.	.	.	0.68	.	CCOC(=O)c1ccc(NC(=O)Cn2cnc(S(=O)(=O)N3CCCC3)c2)cc1
3	0.3	i	-0.2	-4	-2%	-2	-2	0.66	2.8	Nc1nc(SCC(=O)Nc2ccc(Cl)c([N+](=O)[O-])c2)n[nH]1
4	.	+	-4.5	.	.	-5	-9	.	1.7	O=C(C[C@H]1CC[C@@H]2[C@H](COC[C@H](O)CN2Cc2cc(F)ccc2F)O1)NCc1ccc(F)cc1
5	0.5	i	-6.9	73	-8%	-15	-25	0.58	5.6	COc1ccc(Cl)cc1-c1csc(N)n1
6	.	i	-0.7	.	.	2	3	.	-8.8	O=C(Cc1ccncc1)N[C@@H]1CC[C@H](CCn2cc(-c3ccccc3F)nn2)O[C@H]1CO
7	-1.3	i	-9.2	.	3%	-16	-14	0.67	-3.6	CCCN(CCC)C(=O)c1oc2ccccc2c1NC(=O)Cc1cccc(OC)c1
8	1.8	i	8.8	0	18%	1	11	0.7	2.0	CCCCCCCC(=O)NNC(=O)c1c(O)c2ccccc2[nH]c1=O
9	-1.3	i	-0.6	1	4%	5	4	0.67	2.0	O=C(N=C1SC2CS(=O)(=O)CC2N1c1ccc(Br)cc1Cl)C1CC1 (stereo not drawn)
10	0.1	i	2.0	1	?	5	11	0.67	4.3	CC(C)CC(=O)NC(=S)Nc1ccc(Cl)cn1
11	.	i	-2.4	.	.	-2	-25	.	-13	CCc1cnc(N2[C@H](C#N)[C@@H](c3ccc(-c4cccc(F)c4)cc3)[C@@H]2CO)s1

Results, from the first entry:
cpd	HNF4A DNA FP	FGF22 binding	Ecoli rRNA inh RFP	ALR inh	Vif TR-FRET	Ecoli rRNA inh	Ecoli rRNA inh OD600	Ecoli growth	MLL AF4-AF9 inh	molecule
1	3.4	i	6.5	-7	.	13	21	0.66	5.8	CCOC(=O)C1=C(C)N(CCCC(=O)O)C(=O)NC1c1ccccc1OS(=O)(=O)c1ccccc1[N+](=O)[O-] (stereo not drawn)
2	1.9	.	.	-5	.	.	.	0.68	.	CCOC(=O)c1ccc(NC(=O)Cn2cnc(S(=O)(=O)N3CCCC3)c2)cc1
3	0.3	i	-0.2	-4	-2%	-2	-2	0.66	2.8	Nc1nc(SCC(=O)Nc2ccc(Cl)c([N+](=O)[O-])c2)n[nH]1
4	.	+	-4.5	.	.	-5	-9	.	1.7	O=C(C[C@H]1CC[C@@H]2[C@H](COC[C@H](O)CN2Cc2cc(F)ccc2F)O1)NCc1ccc(F)cc1
5	0.5	i	-6.9	73	-8%	-15	-25	0.58	5.6	COc1ccc(Cl)cc1-c1csc(N)n1
6	.	i	-0.7	.	.	2	3	.	-8.8	O=C(Cc1ccncc1)N[C@@H]1CC[C@H](CCn2cc(-c3ccccc3F)nn2)O[C@H]1CO
7	-1.3	i	-9.2	.	3%	-16	-14	0.67	-3.6	CCCN(CCC)C(=O)c1oc2ccccc2c1NC(=O)Cc1cccc(OC)c1
8	1.8	i	8.8	0	18%	1	11	0.7	2.0	CCCCCCCC(=O)NNC(=O)c1c(O)c2ccccc2[nH]c1=O
9	-1.3	i	-0.6	1	4%	5	4	0.67	2.0	O=C(N=C1SC2CS(=O)(=O)CC2N1c1ccc(Br)cc1Cl)C1CC1 (stereo not drawn)
10	0.1	i	2.0	1	?	5	11	0.67	4.3	CC(C)CC(=O)NC(=S)Nc1ccc(Cl)cn1
11	.	i	-2.4	.	.	-2	-25	.	-13	CCc1cnc(N2[C@H](C#N)[C@@H](c3ccc(-c4cccc(F)c4)cc3)[C@@H]2CO)s1
12	.	i	2.5	.	.	2	7	.	1.0	C[C@@H]1CCCCO[C@H](CN(C)C(=O)Nc2ccc(C(F)(F)F)cc2)[C@@H](C)CN([C@H](C)CO)C(=O)c2cc(NS(=O)(=O)c3ccccc3)ccc2O1
13	5.5	i	-1.0	-2	.	13	9	0.7	3.5	O=C(CN1CCc2ccccc21)NC(c1ccccc1)c1ccccc1
14	.	i	-0.9	.	.	1	-2	.	0.2	C[C@H]1CN([C@@H](C)CO)C(=O)Cc2cc(NC(=O)C3CC3)ccc2O[C@@H]1CN(C)Cc1ccc2c(c1)OCO2
15	36*	i	59	67	.	12	5	0.77	-3.1	CCN1C(=O)/C(=C/C=C2/Sc3ccccc3N2CCO)SC1=S
16	-1.6	i	-2.8	1	20%	23	15	.	-0.6	C/C(=N\Nc1ccccc1[N+](=O)[O-])c1ccc(N2CCOCC2)cc1
17	0.5	.	.	.	12%	.	.	0.67	.	Cc1nc(SCC(=O)Nc2ccc(N3CCOCC3)cc2)nc(C)c1C
18	-2.1	i	-1.2	-4	.	0	0	.	-1.6	Cc1ccccc1NC(=O)CCC(=O)N/N=C/c1cccnc1
19	.	i	-2.3	.	.	1	9	.	-0.7	CN(C)C(=O)c1cccc(-c2ccc([C@H]3[C@@H](CO)N4CCCCN(CC5CCOCC5)C[C@@H]34)cc2)c1
20	4.5	.	.	-5	0%	.	.	0.66	.	O=C(NCC1CCCO1)c1ccc(CS(=O)(=O)c2ccc(Cl)cc2)o1 (stereo not drawn)
21	-3.4	.	.	.	-1%	.	.	0.76	.	CCCCOc1ccc(N2C(=O)CC(NCCc3ccc(S(N)(=O)=O)cc3)C2=O)cc1 (stereo not drawn)
22	.	i	-2.0	.	.	-3	3	.	-1.6	CCCNC(=O)N1CC2(CN(CC3CCOCC3)C2)c2c([nH]c3cc(OC)ccc23)[C@@H]1CO
23	.	i	0.1	.	.	-1	2	.	-3.6	COc1ccc(CN(C)C[C@H]2Oc3ccc(NS(=O)(=O)c4ccc(F)cc4)cc3C(=O)N([C@H](C)CO)C[C@@H]2C)cc1
24	.	i	-2.4	.	.	0	-13	.	0.0	Cn1cnc(S(=O)(=O)N2CCCCN3[C@H](C2)[C@H](c2ccc(-c4ccccc4F)cc2)[C@@H]3CO)c1
25	-0.6	.	-3.3	-8	3%	5	4	0.68	.	O=C(O)CCN1C(=O)c2ccc(NC(=O)c3cccs3)cc2C1=O
26	-2.4	i	-1.2	-1	0%	4	7	0.69	-9.5	CCCc1cc(=O)[nH]c(SCC(=O)c2c(N)n(CC(C)C)c(=O)n(C)c2=O)n1
27	-2.2	i	-2.8	-1	-10%	-5	-1	0.65	1.4	Cc1cc2oc(=O)cc(CN3CCC(C)CC3)c2cc1C
28	.	i	-1.8	.	.	-2	-1	.	-15	CCS(=O)(=O)N1CCC2(CC1)CN(Cc1ccc3c(c1)OCO3)[C@@H](CO)c1[nH]c3cc(OC)ccc3c12
29	-1.9	i	-0.5*	.	.	-23*	-15*	.	3.7	COc1cc2c(cc1OC)C(c1ccc3c(c1)Cc1ccccc1-3)OC(=O)C2 (stereo not drawn)
30	.	i	-1.6	.	.	-3	3	.	-1.8	CN1C(=O)c2cc(NC(=O)c3ccc(F)cc3)ccc2OC[C@H]2O[C@@H](CC(=O)NCC3CC3)CC[C@@H]21

cpd	HNF4A DNA FP	FGF22 binding	Ecoli rRNA inh RFP	ALR inh	Vif TR-FRET	Ecoli rRNA inh	Ecoli rRNA inh OD600	Ecoli growth	MLL AF4-AF9 inh	molecule
31	3.1	i	4.0	.	.	19	11	0.75	4.5	CC(Nc1nc(-c2cccc(Br)c2)cs1)c1nc2cc(Cl)c(N3CCCCC3)cc2n1CCOCCO (stereo not drawn)
32	.	i	-0.7	.	.	3	15	.	-2.1	C[C@@H]1CN([C@@H](C)CO)C(=O)c2cc(-c3ccccc3)cnc2O[C@@H]1CN(C)C(=O)C1CCCCC1
33	.	i	-0.1	.	.	4	-4	.	31*	C[C@@H]1CN([C@@H](C)CO)C(=O)Cc2cc(NC(=O)CCCN(C)C)ccc2O[C@H]1CN(C)Cc1ccc(C(=O)Nc2ccccc2N)cc1
34	.	i	0.4	.	.	6	17	.	-38	CCC(=O)N1Cc2cc(C(=O)N(C)C)nc(-c3cccc(-c4cncnc4)c3)c2[C@H]1CCO
35	5.8	i	-3.5	4	.	11	-1	.	22	O=C(N/N=C/c1cc([N+](=O)[O-])ccc1O)c1cccc(N2CCCC2=O)c1
36	-2.7	i	0.5	1	4%	1	6	0.68	-6.0	Cc1ccc(C)c(-n2nnnc2SCC(=O)NCC2CCCO2)c1 (stereo not drawn)
37	-0.2	.	.	21	21%	.	.	0.66	.	N#CCCn1cc(C=C(C#N)C#N)c(-c2ccc(-c3ccccc3)cc2)n1
38	-2.6	i	2.1	-2	-4%	15	11	0.73	1.2	CCCCOc1ccc(-c2ncc(Cl)cn2)cc1
39	-2.3	i	0.1	-2	.	8	15	0.7	-0.7	COCC(=O)Nc1nnc(SCC(=O)N2CCCCC2)s1
40	1.2	.	.	1	-4%	.	.	0.72	.	COc1cc(OC)cc(-n2nc(C(=O)N3CC(C)CC(C)C3)c3ccccc3c2=O)c1 (stereo not drawn)
41	3.4	.	.	.	5%	.	.	0.72	.	CCCCCCn1c(SCC(C)C)nc2c1c(=O)[nH]c(=O)n2C
42	.	i	1.1	.	.	1	-4	.	-1.2	Cc1noc(C)c1NC(=O)N[C@@H]1CC[C@@H](CC(=O)NCc2ccc(Cl)c(Cl)c2)O[C@H]1CO
43	3.3	i	-6.9	37	-6%	-19	-20	0.65	-6.5	O=C(O)C(Cc1cc(Cl)ccc1Cl)Sc1nc2ccccc2[nH]1 (stereo not drawn)
44	5.6	.	2.0	-14	5%	4	10	0.73	1.1	COc1ccccc1S(=O)(=O)Cc1ccc(C(=O)NCCN2CCCCCC2)o1
45	1.4	i	-6.5	-7	-4%	10	7	.	-14	CC(C)[C@H](CO)N(Cc1cccc(F)c1)c1nc(Nc2cccc(Cl)c2)c2ncn(C(C)C)c2n1
46	-2.2	.	.	-14	18%	.	.	0.72	.	COc1ccc(-c2cc(C(=O)O)c(C)o2)cc1OC
47	0.2	i	1.3	-2	-1%	3	-5	0.72	0.9	COc1ccc(-c2nc(C(=O)O)cs2)cc1OC
48	-2.4	.	.	-4	.	.	.	0.69	.	O=C(/C=C/c1ccccc1[N+](=O)[O-])NCC1CCCO1 (stereo not drawn)
49	0.4	.	.	50	-4%	.	.	0.68	.	Cc1ccccc1NC(=O)C1CCCN1C(=O)NC1CCCCC1 (stereo not drawn)
50	0.2	.	.	-1	-2%	.	.	0.69	.	Cc1cc(=O)[nH]c2c1c(C)nn2-c1ccccc1
51	-1.8	i	3.8	.	-1%	14	15	.	-3.0	CCC(=O)c1ccc(OCC(=O)OCc2csc(CC(=O)Nc3ccccc3C)n2)cc1
52	2.3	i	-1.8	-15	-9%	2	-2	0.68	-8.4	O=c1[nH]cnc2c1cnn2Cc1ccccc1Cl
53	.	i	-0.3	.	.	-4	-4	.	1.2	C[C@@H]1CN([C@H](C)CO)C(=O)c2cccc(NC(=O)c3nc4ccccc4s3)c2O[C@@H]1CN(C)C(=O)Nc1cccc2ccccc12
